Source: PubChem (ICCB-Longwood Screening Facility, Harvard Medical School)
PV pol inh: poliovirus RNA polymerase inhibition; poliovirus polymerase elongation, fluorescence polarization; active compounds read low; % elongation, % (compound at 16.7 µg/mL); 150,000 compounds, 0.66% hits; AID 588519; in the data active = % elongation below about 90%; note: some results filed as inactive read as strong as hits
MenB inh: Mtb MenB enzyme inhibition | P9WNP5 | MenB enzyme assay, absorbance read-out; some hits fall short of the stated cut | inhibition, %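 (about 12 µg/mL by stock and volumes)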 | 100,000 compounds, 0.43% hits;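 active = mean of two replicates above 30%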;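 note: 0% = no compound and 100% = wells with inactive enzyme; the first replicate is given; strong numbers were not always called active; inactives centre near -10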
Target sequence (P9WNP5 whole entry, looked up): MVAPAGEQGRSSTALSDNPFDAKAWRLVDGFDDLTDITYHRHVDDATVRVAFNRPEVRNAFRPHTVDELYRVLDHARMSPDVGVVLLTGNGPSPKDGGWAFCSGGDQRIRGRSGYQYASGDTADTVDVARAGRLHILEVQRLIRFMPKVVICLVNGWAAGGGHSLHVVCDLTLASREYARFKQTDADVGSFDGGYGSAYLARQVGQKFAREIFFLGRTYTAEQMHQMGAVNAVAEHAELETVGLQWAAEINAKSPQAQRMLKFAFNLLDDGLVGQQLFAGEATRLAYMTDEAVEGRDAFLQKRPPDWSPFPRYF
Mtb MbtI inh: MbtI salicylate synthase inhibition; P9WFX0; purified MbtI enzyme, fluorescence intensity read-out; inhibition, %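 (about 17 µg/mL by stock and volumes)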; 100,000 compounds, 0.89% hits; AID 493033;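 active = above 50% in both replicates, above 80% if mildly self-fluorescent; inactive = the rest, strongly fluorescent compounds included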;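 note: 0% = mean of negative and 100% = mean of positive controls; one replicate is shown; some compounds called inactive have numbers as strong as hits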
Target sequence (P9WFX0 whole entry, looked up): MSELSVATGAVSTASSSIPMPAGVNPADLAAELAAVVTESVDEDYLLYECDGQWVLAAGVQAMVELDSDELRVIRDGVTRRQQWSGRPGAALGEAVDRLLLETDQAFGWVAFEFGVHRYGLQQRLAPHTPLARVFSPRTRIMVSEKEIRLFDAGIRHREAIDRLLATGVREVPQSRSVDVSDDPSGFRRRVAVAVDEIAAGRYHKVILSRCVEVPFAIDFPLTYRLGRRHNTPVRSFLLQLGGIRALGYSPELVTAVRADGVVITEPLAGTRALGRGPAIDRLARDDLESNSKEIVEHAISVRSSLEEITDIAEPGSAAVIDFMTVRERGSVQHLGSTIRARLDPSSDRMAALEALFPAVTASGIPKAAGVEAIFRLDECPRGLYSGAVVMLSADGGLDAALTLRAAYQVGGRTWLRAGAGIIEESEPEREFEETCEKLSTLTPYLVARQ
PV pol inh intensity: further read-out of PV pol inh, marked with its call; % elongation; measured here: total intensity read-out; formula for this scale not given here;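 total fluorescence in place of polarization; lower means less elongation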
* = called active by the depositor; i = inactive; / = no result given; & = joins results of further samples.

SMILES	PV pol inh	PV pol inh intensity	MenB inh	Mtb MbtI inh
O=C(Cn1cnc2ccccc2c1=O)c1ccc2c(c1)OCCO2	103	108	-42	21
Cc1ccc2nc(NCc3cccnc3)c(C=NCc3cccnc3)c(=O)n2c1	100	104	-19	/
O=C(CCC(=O)N1CCSc2ccccc21)N1CCN(c2ccccc2)CC1	103	99	-9	3
O=C(CCN1CCCCC1)Nc1ccccc1	102	104	4	-9
Cc1cc(-c2ccccc2)o[n+]1C	104	104	-6	7
CC(=O)NC(C(=O)Nc1nc(-c2ccc(C)s2)cs1)C(C)C (stereo unspecified)	108	101	-38	13
O=C1Cc2cc(S(=O)(=O)NCc3ccccc3Cl)ccc2N1	103	104	-10	-6
O=C(Nc1ccc2c(c1)OCO2)c1cn(-c2ccccc2)nc1-c1cccs1	105	108	-3	1
CCc1onc(C)c1C(=O)Nc1ccc(Br)cc1F	108	113	-14	-8
CC(=O)Nc1nnc(SCC(=O)N2C(C)CCCC2C)s1 (stereo unspecified)	102	102	-37	2
O=C(O)c1cccc(Cn2c(Cl)c(/C=N/NC(=O)c3ccncc3)sc2=O)c1	99	104	-43	7
Cc1c(Cl)cccc1-n1c(SCC(=O)NCC2CCCO2)nc2n[nH]c(C)c2c1=N (stereo unspecified)	102	102	-31	-11
O=C1N=C(N2CCCCC2)S/C1=C/C1=Cc2ccccc2OC1	101	114	-36	16
CCc1ccc(S(=O)(=O)N2CCn3cccc3C2c2ccc(Cl)cc2)s1 (stereo unspecified)	107	101	-49	-4
COCCCNc1nc2ccc(C)cc2n2nnnc12	102	125	-12	-19
CCN1CCN(C(=O)CS(=O)Cc2nc(-c3ccc(OC)cc3)oc2C)CC1 (stereo unspecified)	101	104	4	118
CCOC(=O)c1ccc(N2C(=O)CC(N3CCN(C/C=C/c4ccccc4)CC3)C2=O)cc1 (stereo unspecified)	102	101	5	2
O=C(Oc1ccc2oc3c(c2c1)CCCC3)c1cccs1	101	109	-7	5
CC1=C(C#N)C(=O)N(CC(C)O)C(=O)/C1=C/c1ccc(-c2ccc(Cl)cc2)o1 (stereo unspecified)	99	100	-22	28
CCOc1cc(/C=N\NC(=O)Cn2c(-c3nonc3N)nc3ccccc32)cc(I)c1OC	103	102	-32	3

Part of the list above, with values under each structure:
Below each compound – PV pol inh | PV pol inh intensity | MenB inh | Mtb MbtI inh
Cc1c(Cl)cccc1-n1c(SCC(=O)NCC2CCCO2)nc2n[nH]c(C)c2c1=N (stereo unspecified)
 : 102 | 102 | -31 | -11
O=C1N=C(N2CCCCC2)S/C1=C/C1=Cc2ccccc2OC1
 : 101 | 114 | -36 | 16
CCc1ccc(S(=O)(=O)N2CCn3cccc3C2c2ccc(Cl)cc2)s1 (stereo unspecified)
 : 107 | 101 | -49 | -4
COCCCNc1nc2ccc(C)cc2n2nnnc12
 : 102 | 125 | -12 | -19
CCN1CCN(C(=O)CS(=O)Cc2nc(-c3ccc(OC)cc3)oc2C)CC1 (stereo unspecified)
 : 101 | 104 | 4 | 118
CCOC(=O)c1ccc(N2C(=O)CC(N3CCN(C/C=C/c4ccccc4)CC3)C2=O)cc1 (stereo unspecified)
 : 102 | 101 | 5 | 2

(next part)
SMILES	PV pol inh	PV pol inh intensity	MenB inh	Mtb MbtI inh
CN(C)c1ccc(CNc2ccc3c(c2)ncn3-c2ccccc2)cc1	99	101	-13	25
Cc1ccc(Cl)cc1N1CCN(C(=O)CCCCCn2c(=S)[nH]c3cc4c(cc3c2=O)OCO4)CC1	102	103	9	-17
NC(=O)C1CCN(C(=O)/C(=C/c2ccco2)NC(=O)c2ccccc2)CC1	104	101	-6	15
CCC(Sc1nc2c(cc1C#N)CCCCC2)C(=O)Nc1cc(C)on1 (stereo unspecified)	101	104	-32	-139
Cc1nnc(COC(=O)CNC(=O)c2ccc(C(F)(F)F)cc2)o1	103	103	4	-4
Cc1ccc2cc3cc(C(=O)Nc4cccc(Cl)c4)oc3nc2c1	81	129	-27	16
Cc1cc(C)cc(N2CC(c3nc4ccccc4n3C(C)C)CC2=O)c1 (stereo unspecified)	99	101	2	5
O=c1oc2ccccc2c(NCc2ccc3c(c2)OCO3)c1CN1CCCC1	104	107	-10	2
Cc1csc(=Nc2ccc(Cl)c(Cl)c2)n1CCCN1CCCC1=O	102	107	-28	0
CN1C(=O)/C(=C/c2ccco2)SC1=Nc1cccc(C(=O)O)c1	102	97	-90	9
O=C(Nc1ccc(C(=O)N2CCCCC2)cc1)C1CCCCC1	100	102	12	-2
O=C(O)Cc1nonc1NCn1nnc2ccccc21	101	103	-10	-1
Cc1ccc(-c2nc(S(=O)(=O)c3ccccc3)c(SCC(N)=O)o2)cc1	103	96	-34	1
O=C(CCC1CCCCC1)NCCC12CC3CC(CC(C3)C1)C2	100	96	-2	-3
CN1CCC[C@H]1c1cccnc1	98	100	-7	-9
COC(=O)C(CC(C)C)NC(=O)c1ccc(S(C)(=O)=O)cc1 (stereo unspecified)	104	102	12	-8
CC(C)C(NC(=O)Cc1ccccc1)C(=O)N1CCN(c2cccc(Cl)c2)CC1 (stereo unspecified)	103	107	-39	-5
O=C(NCCN1CCCc2ccccc21)Nc1ccc2c(c1)OCCO2	101	103	5	6
Nc1cc(F)ccc1N1CCCCCC1	99	102	-1	17
COC(=O)C(CCCN1C(=O)c2ccccc2C1=O)(NC(C)=O)c1nn[nH]n1 (stereo unspecified)	103	104	-16	/
Nc1cc2c(cc1-n1cccc1)OCCO2	103	106	-34	90
CCCCC(C(N)=O)N1C(=O)C2C3C=CC(C3)C2C1=O (stereo unspecified)	103	108	-3	/
COCc1cc(C)n(CC(=O)OC)c(=O)c1C#N	101	101	2	-13
COc1ccc(CN(C)C(=O)/C=C/c2cn(CCC#N)c3ccccc23)cc1F	97	97	-15	9
O=C(COC(=O)c1ccccc1SCC(=O)N1CCCC1)Nc1nnc(-c2ccccc2)o1	106	111	-45	9
[O-][n+]1onc2c3nsnc3c(Br)cc21	99	100	13	-4
Cc1cc(-c2ccc(C)c(S(=O)(=O)N3CCc4ccccc4C3)c2)on1	102	101	-5	5
CCc1ccc2occ(CC(=O)Nc3ccc(C(=O)OC)cc3)c2c1	101	99	-47	5
CC(=O)Nc1cc(C(=O)O)ccc1S(=O)(=O)c1ccc(Cl)cc1	99	99	-5	-17
CCN=C1S/C(=C/c2ccc(OCC(=O)O)c(Cl)c2)C(=O)N1CC	112	104	-26	/
COC(=O)c1ccc(C2C3=C(CC(C)(C)CC3=O)Nc3ccccc3N2C(=O)C(C)C)cc1 (stereo unspecified)	103	105	-18	-211
S=C=Nc1ccc(Oc2ccccc2)cc1	121	111	-28	-11
CC1=CC(=O)C(C(=O)/C=C/c2ccc3c(c2)OCO3)C(=O)O1 (stereo unspecified)	53	236	-41	-5
O=C(O)/C=C/C(=O)Nc1ccccc1	105	105	-11	-3
CC1CC(C)CN(Cc2cn3c(-c4ccc(Br)cc4)nnc3s2)C1 (stereo unspecified)	100	102	-16	5
CCCCc1ccc(-n2c(-c3ccc(F)cc3)coc2=O)cc1	101	106	-18	-8
CCCCn1c(O)c(N=NC(=O)c2ccccc2)c2ccccc21	103	108	-25	-5
O=C(c1ccccc1)c1cn(CCCOc2ccccc2)c2ccccc12	104	105	-56	-11
Cc1cc(-c2cccc(S(=O)(=O)N3CCOCC3)c2)n2c(nc3ccccc32)c1C#N	103	104	7	-6
COc1ccc(-n2c(SCCC#N)nc3ccccc32)cc1	104	110	-16	4

Entries of single compounds, looked up by structure. Order of values: PV pol inh	PV pol inh intensity	MenB inh	Mtb MbtI inh
Record of Nc1cc2c(cc1-n1cccc1)OCCO2 : 103	106	-34	90
Record of CC(=O)Nc1cc(C(=O)O)ccc1S(=O)(=O)c1ccc(Cl)cc1 : 99	99	-5	-17
Record of COCc1cc(C)n(CC(=O)OC)c(=O)c1C#N : 101	101	2	-13
Record of COc1ccc(-n2c(SCCC#N)nc3ccccc32)cc1 : 104	110	-16	4
Record of Cc1cc(-c2cccc(S(=O)(=O)N3CCOCC3)c2)n2c(nc3ccccc32)c1C#N : 103	104	7	-6

(list continues)
SMILES	PV pol inh	PV pol inh intensity	MenB inh	Mtb MbtI inh
O=C(c1ccc(F)cc1)C1CCN(C(=O)NC2CCCCC2)CC1	99	100	-2	-8
C#CCn1c(=NC(=O)CN2C(=O)CCC2=O)sc2c3ccccc3ccc21	98	105	-27	2
Clc1ccc(CSc2ncn[nH]2)cc1	105	101	-16	-7&-12
COc1ccc2c(c1)c(C(=O)O)c(C)n2-c1ccccc1	105	99	/	-82
COCCNC(=O)C1c2ccccc2C(=O)N(CCOC)C1c1c[nH]c2ccccc12 (stereo unspecified)	102	104	-24	-5
O=C1CN(C(=O)c2ccccc2)C(=S)N1	103	102	-11	8
CC(=O)N(CCc1ccccc1)Cc1nc2ccccc2c(=O)[nH]1	105	103	-45	1
O=C(/C=C/Sc1nc2ccccc2o1)c1ccccc1	97	98	-6	54*
COc1ccc(Cl)cc1C(=O)N1CCCC1C(=O)OCc1ccccc1 (stereo unspecified)	106	110	-28	/
CCCCN(C)C(=O)C1CCC(=O)N(c2cc(OC)c(OC)c(OC)c2)C1c1ccc(OC)cc1 (stereo unspecified)	100	101	-21	-12
O=C(C1c2ccccc2C(=O)N2CCc3ccccc3C12)N1CCCC1 (stereo unspecified)	102	104	-2	-2
Cc1ccc2oc(=O)c3cc(C(=O)N4CCN(c5ccc(F)cc5)CC4)sc3c2c1	103	104	1	8
CCN(CC)Cc1nc2ccccc2c(=O)n1-c1ccc(F)cc1	98	100	-6	2
CCN(CC)c1nnc(-n2cccc2)s1	102	103	-7	15
Cc1ccc(Cl)cc1N1CCN(C(=O)c2ccc3c(=O)n4nc(Nc5ccccc5)sc4nc3c2)CC1	100	99	-6	89
CCOC(=O)c1[nH]nc(N)c1-c1cccc(OC)c1	100	101	2	-57
Cc1ccc(S(=O)(=O)N(Cc2ccco2)c2nc3ccccc3nc2Cl)cc1	112	133	-4	-2
O=C(COc1ccc(Br)cc1)N/N=C1\SCC(=O)N1c1ccc(F)cc1	100	104	19	1
CCOC(=O)C1=C(CSc2nc3scc(-c4cccs4)c3c(=O)[nH]2)NC(=O)NC1C (stereo unspecified)	103	114	-3	21
Cc1nnc(SCC(=O)N2CCc3ccccc32)[nH]c1=O	104	109	-16	-9
Cc1cc(/C=N/NC(=O)Cn2nnc(-c3ccccc3)n2)c(C)n1CC(C)C	100	96	-11	-6
CCN(CC)c1ccc(C=Nc2ccc(C#N)cc2)cc1	100	102	-44	6
CCOc1ccc(S(=O)(=O)N2CCCCC2)cc1-c1nc2c(C(C)(C)C)nn(C)c2c(=O)[nH]1	101	107	-4	/
CCOC(=O)c1oc(-c2ccc(F)cc2)nc1C	100	103	4	4
CC(=O)Nc1ccc(OC(=O)c2cccc(C)c2)cc1	101	100	-30	-1
Cc1cccc(-n2c(=O)c3[nH]c4ccccc4sc=3c2=O)c1	103	104	13	-4
CCCC(CC(=O)N1CCN(c2cccc(C)c2C)CC1)n1ccnc1 (stereo unspecified)	103	104	-19	7
Cc1ccc(Cn2c3ccccc3c3cn[nH]c(=O)c32)cc1	101	102	-45	-2
COc1cc(/C=N/N2CC(=O)NC2=O)ccc1OCc1csc(C)n1	99	104	8	23
CCOC(=O)c1c(N)oc2c(-c3ccc(CC)cc3)c3c(C(=O)OCC)c(N)oc3cc12	102	98	3	i
O=C(Nc1nnnn1/N=C/c1ccccc1F)c1ccc(F)cc1	101	104	4	-12
Cc1nc2c3ccccc3n(CCc3ccccc3)c2s1	102	103	-10	3
COc1ccccc1CCCN	103	103	24	-2
CC(CCc1ccccc1)NC(=O)C1=CCN(S(=O)(=O)c2ccc(F)cc2)CC1 (stereo unspecified)	102	105	-1	-1
CN(Cc1ccccc1)C(=O)COC(=O)c1ccc2ccccc2n1	101	103	/	14
O=C(CN1CCC(N2CCCCC2)CC1)N1CCC2(CC1)OCCO2	99	102	-8	-4
COC(=O)CSc1ncc(C#N)c(N)n1	102	106	17	34
COc1ccc(CNC(=O)c2oc3ccccc3c2C)cc1	108	109	-10	/
Cc1cccc(-c2nc(CN3C(=O)C(C)N=C(c4ccccc4F)c4cc(Cl)ccc43)c(C)o2)c1 (stereo unspecified)	103	98	-4	-1
CCOc1ccc(C2C(C(=O)Nc3cc(C)on3)c3ccccc3C(=O)N2CCN2CCOCC2)cc1 (stereo unspecified)	100	103	-32	-1
CCN(CC)C(=O)COc1coc(CN2CCc3ccccc3C2)cc1=O	102	102	-3	7
COc1ccc(C(=O)N2CCCc3ccccc32)cc1	101	102	-25	3
O=C(O)c1cc(C(=O)O)c(-c2ccccc2)c(C(=O)O)c1	99	103	-23	-5
CCCn1c(SCc2ccc(Br)cc2)n[nH]c1=O	102	109	-15	4
O=C(COc1ccc(F)cc1)OCc1cc(=O)n2c3c(sc2n1)CCCC3	100	103	-12	4
COC(=O)C1=CN(C2CCCCC2)C=C(C(=O)OC)C1c1cccc(C)c1	100	103	-13	50
COc1ccc(NC(=O)CC2C(=O)N(C)C(=S)N2CCNC(C)=O)cc1 (stereo unspecified)	100	100	-7	-2
Cc1ccc2[nH]c(=O)c3cc(C(=O)N(CC(C)C)CC(C)C)sc3c2c1	104	107	-14	3
CCNC(=S)N1CCN(S(=O)(=O)c2ccc(C)cc2)CC1	104	107	-16	11

Part of the list above, limited to MenB inh, Mtb MbtI inh and PV pol inh.
compound	MenB inh	Mtb MbtI inh	PV pol inh
COc1ccc(C(=O)N2CCCc3ccccc32)cc1	-25	3	101
CCNC(=S)N1CCN(S(=O)(=O)c2ccc(C)cc2)CC1	-16	11	104
COc1ccc(NC(=O)CC2C(=O)N(C)C(=S)N2CCNC(C)=O)cc1 (stereo unspecified)	-7	-2	100
O=C(O)c1cc(C(=O)O)c(-c2ccccc2)c(C(=O)O)c1	-23	-5	99
COC(=O)C1=CN(C2CCCCC2)C=C(C(=O)OC)C1c1cccc(C)c1	-13	50	100
